# Insulin prom inh – TRM-6 insulin promoter activity inhibition; inhibition, % at 2 µM; AID 1273; 130,000 tested, 0.9% active; TRM-6 cells (human fetal islet line), insulin promoter-eGFP reporter, imaging; reporter expression induced with tamoxifen;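 active = inhibition above the mean plus 3 SD, with well images judged a real hit on visual review, cut at about 60% in these data, passing the limit was not always enough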
# GALR2 agonist – GALR2 (human) receptor agonism; O43603; GALR2-expressing cells, agonist activation read-out; activation, %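 (tested at 5 µM)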; 140,000 tested, 0.48% active;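 active = above mean plus 3 SD of all compounds, about 5% in these data, not always enough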;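 note: 0% = vehicle buffer wells and 100% = reference agonist at full effect; tested in CHO reporter cells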
# Target sequence (O43603 whole entry, looked up): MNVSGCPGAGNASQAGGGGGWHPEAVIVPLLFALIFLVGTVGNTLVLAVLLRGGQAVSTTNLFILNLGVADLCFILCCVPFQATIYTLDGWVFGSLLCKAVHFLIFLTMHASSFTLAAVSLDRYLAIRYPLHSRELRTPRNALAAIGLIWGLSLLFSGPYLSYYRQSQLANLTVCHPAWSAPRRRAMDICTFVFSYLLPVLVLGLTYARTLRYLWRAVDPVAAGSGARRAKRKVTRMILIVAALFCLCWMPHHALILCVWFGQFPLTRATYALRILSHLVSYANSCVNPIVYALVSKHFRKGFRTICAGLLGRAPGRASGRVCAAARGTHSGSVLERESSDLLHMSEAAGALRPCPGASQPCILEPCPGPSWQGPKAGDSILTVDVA
# RGS16-Gao HTS – regulators of human RGS16-Galphao interaction; 220,000 tested, 0.38% active; AID 1441; bead-based flow cytometry RGS16-Galphao binding, fluorescence; actives lie on both sides; binding response (% of control), % at 10 µM;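 active = below 25% or above 175%, edge rows of some plates excepted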;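 note: Galphao activated by GDP with aluminum fluoride before binding; 100% = wells without compound and 0% = beads without RGS; some results beyond the cut were filed as inactive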
# Target sequence (O15492 whole entry, looked up): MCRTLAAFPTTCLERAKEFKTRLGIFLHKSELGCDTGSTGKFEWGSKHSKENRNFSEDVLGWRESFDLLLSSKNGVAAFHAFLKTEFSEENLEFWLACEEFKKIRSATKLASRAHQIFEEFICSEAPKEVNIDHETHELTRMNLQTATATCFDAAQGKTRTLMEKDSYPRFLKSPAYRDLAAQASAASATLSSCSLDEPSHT
# Target sequence (P09471 whole entry, looked up): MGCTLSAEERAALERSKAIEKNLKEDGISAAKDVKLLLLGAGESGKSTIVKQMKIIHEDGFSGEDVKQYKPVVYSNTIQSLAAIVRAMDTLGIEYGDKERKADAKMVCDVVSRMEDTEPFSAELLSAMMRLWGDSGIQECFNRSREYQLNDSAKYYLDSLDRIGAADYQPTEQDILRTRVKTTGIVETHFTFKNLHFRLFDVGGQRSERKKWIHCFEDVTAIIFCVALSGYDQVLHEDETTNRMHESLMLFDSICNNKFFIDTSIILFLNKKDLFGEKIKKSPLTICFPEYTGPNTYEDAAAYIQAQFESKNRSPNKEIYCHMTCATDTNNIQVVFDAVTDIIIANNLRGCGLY
# HSV replic up – increases HSV replication in cells | maximum fold increase | AID 1956 | HSV replication augmentation in cells, fold increase | 220,000 tested, 0.005% active;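 active = peak rise of 1.5-fold or more in the series; tested in PC3 cells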;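 note: first round at 10 µM; read as green reporter fluorescence; hits show the peak of a series up to 25 µM; 1 = signal of infected wells without compound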
# PKD1 kinase inh – blocks activity of human protein kinase D1; inhibition, %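 (about 10 µM by stock and volumes)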; 200,000 tested, 0.056% active; Q15139; PKD1 kinase fluorescence polarization assay;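 active = inhibition of 50% or more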;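 note: controls were vehicle for no effect and a reference inhibitor for full effect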
# Insulin prom inh cell count – also measured in Insulin prom inh; calls as there; normalized cell count, %; measured here: cell count, toxicity; reference of the scale not given here;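 cells exposed to compound for 48 h; stained nuclei by imaging scaled within each plate; lower means fewer cells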
# HSV replic up primary fold – recorded beside HSV replic up, whose call it bears; fold increase; compound at 10 µM; measured here: primary screen fold increase 10 uM; tested in PC3 cells;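 GFP signal in the first replicate; 1 = infected wells without compound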
# An asterisk follows results filed as active; i = inactive; x = not tested or not shown.
# Values run as follows: Insulin prom inh, Insulin prom inh cell count, GALR2 agonist, RGS16-Gao HTS, HSV replic up, HSV replic up primary fold, PKD1 kinase inh
c1cnc(NC2CCCCCC2)nc1
  41, 73, -2.4, 100, i, 0.84, -5
C/C(CC(=O)NC1CCCC1)=N\NC(=O)c1ccc([N+](=O)[O-])c(Cl)c1
  -21, 73, -1.5, 106, i, 0.82, -7
COC(=O)C1C(O)=C(C=Nc2ccc(N)cc2)C(=O)CC1(C)C (stereo not drawn)
  0, 109, -0.1, 67, i, 0.99, 6
O=C(c1ccc(S(=O)(=O)N2CCOCC2)cc1)N1CCN(c2ccccn2)CC1
  x, x, x, 101, i, 1, -2
CCOc1cc(C(=O)NCCN2C(=O)S/C(=C\c3cccnc3)C2=O)cc(OCC)c1OCC
  x, x, -0.6, 100, i, 0.92, 11
O=C(N/N=C/c1c[nH]c2ccc(Br)cc12)c1ccncc1
  x, x, -2.6, 102, i, 1.1, 0
COc1cc(C(=O)NC(=S)Nc2ccc([N+](=O)[O-])cc2)cc(OC)c1OC
  23, 101, -0.6, 99, i, 0.99, -5
CCCC(=O)Oc1ccc(N(C(=O)CCC)S(=O)(=O)c2cccc([N+](=O)[O-])c2)cc1
  29, 146, 0.0, 100, i, 1, 13
COc1ccccc1/C=N/N1C(=O)C(CC(=O)Nc2ccc([N+](=O)[O-])cc2OC)SC1=Nc1cccc(C)c1C (stereo not drawn)
  -50, 164, x, 109, i, 0.64, 2
Cc1ccc2c(c1)C(=O)C(=O)N2CC(=O)OC(C)C
  3, 88, -1.6, 99, i, 0.99, -7
COc1ccc(OCC(=O)NC(=S)Nc2ccc3c4c(cccc24)CC3)cc1
  21, 120, -2.5, 104, i, 0.92, -6
COc1ccc(CNc2nc(-c3cccnc3)nn2C(=O)CC(C)C)cc1
  11, 109, x, 97, i, 0.93, 1
O=C(c1cccs1)N1N=C(c2ccccc2)CC1c1ccccc1 (stereo not drawn)
  25, 116, -4.4, 99, i, 0.99, -3
Cn1c(=O)oc2cc(S(=O)(=O)NCCC(=O)Nc3ccc4c(c3)OCCO4)ccc21
  x, x, -2.4, 100, i, 1, -1
CCN(Cc1ccccc1)C(c1ccccn1)c1nnnn1C1CCCCC1 (stereo not drawn)
  54, 100, -2.5, 108, i, 1.1, -5
COc1ccc(C2=NOC(C(=O)Nc3cc(C)on3)C2)cc1OC (stereo not drawn)
  x, x, x, 96, i, 0.87, x
CCOC(=O)c1c(NC(=O)CSc2nnc(CNc3ccc(Cl)cc3)o2)sc(C)c1C
  -454, 60, -2.0, 92, i, 1.1, -6
COc1cc2c(O)c3c(c(-c4ccc5c(c4)OCO5)c2cc1OC)C(=O)OC3
  -127, 19, 0.5, 105, i, 0.77, 2
CN(C)S(=O)(=O)Nc1ccc(Br)cc1F
  38, 118, -1.1, 100, i, 0.95, -15
Cc1ccc(S(=O)(=O)NNc2nc3ccccc3nc2C(F)(F)F)cc1
  -23, 103, -0.4, 97, i, 1.1, 5

# 5 compounds from above, ordered by their value in HSV replic up primary fold, highest first.
SMILES	HSV replic up primary fold
O=C(c1ccc(S(=O)(=O)N2CCOCC2)cc1)N1CCN(c2ccccn2)CC1	1
O=C(c1cccs1)N1N=C(c2ccccc2)CC1c1ccccc1 (stereo not drawn)	0.99
COc1ccc(C2=NOC(C(=O)Nc3cc(C)on3)C2)cc1OC (stereo not drawn)	0.87
c1cnc(NC2CCCCCC2)nc1	0.84
C/C(CC(=O)NC1CCCC1)=N\NC(=O)c1ccc([N+](=O)[O-])c(Cl)c1	0.82

# The main list resumes, repeating the two entries before the break.
# Values run as follows: Insulin prom inh, Insulin prom inh cell count, GALR2 agonist, RGS16-Gao HTS, HSV replic up, HSV replic up primary fold, PKD1 kinase inh
CN(C)S(=O)(=O)Nc1ccc(Br)cc1F
  38, 118, -1.1, 100, i, 0.95, -15
Cc1ccc(S(=O)(=O)NNc2nc3ccccc3nc2C(F)(F)F)cc1
  -23, 103, -0.4, 97, i, 1.1, 5
COCC(C)n1c(C)cc(C(=O)COC(=O)c2ccc3ncsc3c2)c1C (stereo not drawn)
  27, 113, -2.5, 96, i, 0.9, -4
CCc1nnc(NC(=O)[C@@H](NC(=O)c2ccc(C(C)(C)C)cc2)C(C)C)s1
  23, 70, -2.1, 108, i, 1, 13
CCN(CC)CCNC(=O)C(C)c1nn(CC)c(=O)c2ccccc12 (stereo not drawn)
  47, 61, -0.3, 110, i, 1, -5
Cc1cnc(NC(=O)CCCc2nc3ccccc3s2)s1
  3, 176, -2.9, 100, i, 0.56, 8
Cc1cccc(OCC(O)Cn2c(NCc3cccnc3)nc3c2c(=O)[nH]c(=O)n3C)c1 (stereo not drawn)
  x, x, -1.8, 100, i, 0.96, 8
COc1ccc(S(=O)(=O)N(C)C2CCS(=O)(=O)C2)cc1OC (stereo not drawn)
  11, 211, -4.7, 102, i, 0.87, -3
CC1(C)CC(=O)C(/C=N/n2cnc3ccccc3c2=O)=C(O)C1
  x, x, -1.9, 98, i, 0.82, -2
COC(=O)c1sc(=S)n(-c2ccccc2OC)c1N
  -11, 98, -1.1, 97, i, 0.89, -10
Cc1ccccc1C(=O)N1CCC(C(=O)Nc2ccc(S(=O)(=O)N3CCCC3)cc2)CC1
  43, 146, -1.2, 96, i, 1, -8
Cc1ccsc1C(=O)Nc1cccc(S(=O)(=O)N(C)C)c1
  -431, 88, -1.5, 107, i, 0.88, 7
Cc1cc2cc3c(cc2nc1SCC(=O)N1CCN(C(=O)c2ccco2)CC1)OCO3
  23, 168, -2.4, x, i, 0.9, 0
Cc1[nH]c2ccccc2c1C(=O)C(=O)NCCCn1ccnc1
  9, 108, x, 107, i, 1.1, -3
O=C(O)CCC(=O)Nc1ccccc1C(=O)NCc1ccco1
  -138, 108, -2.0, 60, i, 0.93, -4
O=C(CCS(=O)(=O)c1cccc2nsnc12)N1CCN(C(=O)c2ccco2)CC1
  6, 86, -1.3, 98, i, 1.1, -5
CCN(CC)C(=O)CSc1n[nH]c(=S)n1N
  x, x, x, 99, i, 0.96, x
O=C(COc1ccccc1[N+](=O)[O-])N/N=C/c1ccncc1
  0, 119, x, 103, i, 0.9, 1
CCOc1ccccc1NC(=O)Nc1ccc(Cl)cc1
  7, 142, -1.2, 108, i, 0.92, -4
Cc1cc(C)nc(SCc2nnc(SCC(=O)Nc3ccccc3C)n2Cc2ccco2)n1
  -7, 208, -1.4, 95, i, 0.99, -20
Nn1c(SCCOc2ccc(Cl)cc2)nnc1-c1cccnc1
  x, x, x, 101, i, 1.1, -7
Brc1cccc2sc(N3CCN(c4ccccc4)CC3)nc12
  -20, 139, x, 98, i, 1.2, 4

# More entries:
# Values run as follows: Insulin prom inh, Insulin prom inh cell count, GALR2 agonist, RGS16-Gao HTS, HSV replic up, HSV replic up primary fold, PKD1 kinase inh
CC(O)CNC(=O)c1ccc(-c2nn(C)c(=O)c3ccccc23)cc1 (stereo not drawn)
  -31, 79, -1.8, 103, i, 0.95, -8
S=C(NC1CCCCC1)NN1CCOCC1
  x, x, x, 101, i, 1.1, -6
CCNCCC(CCC(C)C)c1ccc2c(c1)OCO2 (stereo not drawn)
  x, x, x, 102, i, 0.98, x
CS(=O)(=O)N1CCN(c2ccccc2NC(=O)c2ccc(Cl)cc2)CC1
  -24, 139, 0.8, 105, i, 0.87, 2
CC1CCCCN1C(=O)CSc1nnc(-c2ccco2)n1CC1CCCO1 (stereo not drawn)
  36, 76, -1.2, 103, i, 0.98, -2
CC(NC(=O)COc1ccccc1-c1ccccc1)c1ccccc1 (stereo not drawn)
  x, x, -0.3, 104, i, 0.95, -5
CCOC(=O)c1c(C)oc2ccc(O)c(CN(C)C)c12
  17, 148, -1.5, 103, i, 0.91, 8
CCCC(=O)c1ccc(N2CCN(C(=O)c3ccccc3)CC2)c(F)c1
  -25, 82, -1.2, 91, i, 0.99, -13
Cc1ccc(-n2nnnc2SC(C(=O)c2c[nH]c3ccccc23)c2ccccc2)cc1 (stereo not drawn)
  x, x, 0.8, 105, i, 0.76, -13
COc1cccc(C2C=C(c3cccs3)Nc3ncnn32)c1OC (stereo not drawn)
  0, 111, 0.0, 109, i, 1, -8
O=C(NCCCc1ccccc1)Nc1cccc(Cl)c1
  x, x, -0.1, 117, i, 1.1, -4
COc1ccc(C(=O)NC(=S)Nc2ccc3oc(=O)ccc3c2)cc1
  -17, 40, 2.2, 92, i, 1, -2
COc1ccc(N2CCN(C(=O)c3cccc4nc(C)oc34)CC2)cc1
  0, 129, x, 13*, i, 0.93, -5
O=C(NC(=S)Nc1ccc2oc(=O)ccc2c1)c1ccccc1F
  x, x, x, 92, i, 0.97, x
COc1ccc(CNC(=O)C(=O)NCc2ccncc2)cc1
  x, x, x, 101, i, 0.98, -10
CCn1c2ccccc2c2cc(CN3CCN(S(=O)(=O)CC)CC3)ccc21
  -7, 75, -1.7, 234, i, 1.1, 7
COCCNC(=O)c1c(N)n(CCCn2ccnc2)c2nc3ccccc3nc12
  x, x, 0.0, 101, i, 0.94, -2
O=C1CC(c2ccccc2)CN1S(=O)(=O)c1ccccc1 (stereo not drawn)
  x, x, -1.9, 99, i, 1, -12
Cc1ccc(Cl)cc1NC(=S)N(Cc1cccnc1)Cc1ccccc1Cl
  0, 104, x, 98, i, 1, -9
O=C(Cn1ncc2c(=O)oc3ccccc3c21)NCCC1=CCCCC1
  x, x, -1.9, 102, i, 0.98, 5

# Part of the list above in order of length of the SMILES, descending.
# Values run as follows: Insulin prom inh, Insulin prom inh cell count, GALR2 agonist, RGS16-Gao HTS, HSV replic up, HSV replic up primary fold, PKD1 kinase inh
CS(=O)(=O)N1CCN(c2ccccc2NC(=O)c2ccc(Cl)cc2)CC1
  -24, 139, 0.8, 105, i, 0.87, 2
CC(O)CNC(=O)c1ccc(-c2nn(C)c(=O)c3ccccc23)cc1 (stereo not drawn)
  -31, 79, -1.8, 103, i, 0.95, -8
Cc1ccc(Cl)cc1NC(=S)N(Cc1cccnc1)Cc1ccccc1Cl
  0, 104, x, 98, i, 1, -9
COc1cccc(C2C=C(c3cccs3)Nc3ncnn32)c1OC (stereo not drawn)
  0, 111, 0.0, 109, i, 1, -8

# (next part)
# Values run as follows: Insulin prom inh, Insulin prom inh cell count, GALR2 agonist, RGS16-Gao HTS, HSV replic up, HSV replic up primary fold, PKD1 kinase inh
O=C(O)C1C2C=CC3(CN(Cc4ccccn4)C(=O)C13)O2 (stereo not drawn)
  7, 92, -3.9, 99, i, 0.88, -25
CSCCC(NC(N)=O)C(=O)NCc1cccc(Cl)c1 (stereo not drawn)
  -5, 86, -1.3, 126, x, x, -1
CCN(CC)S(=O)(=O)c1ccc(Cl)c(C(=O)Nc2ccc(Cl)cc2[N+](=O)[O-])c1
  -56, 69, -1.8, 101, i, 0.92, 1
COc1ccc(OCCC(=O)NCc2ccccc2)cc1
  -9, 87, -0.9, 99, i, 0.84, -5
COCCCNC(=S)NNC(=O)c1ccc(C(C)(C)C)cc1
  x, x, x, 108, i, 0.87, x
CCOc1cc(-c2noc(CCCC(N)=O)n2)cc(Br)c1OC
  -42, 101, -1.4, 101, i, 1, -11
O=C(CN1CCCC1)Nc1ccc2c(c1)CCC2
  x, x, x, 97, i, 0.91, -1
O=C(NNC(=O)c1cccc2ccccc12)c1ccco1
  x, x, -2.6, 102, i, 0.9, 2
Cc1cccc(C)c1NC(=O)CC(NCCc1ccccc1)C(=O)O (stereo not drawn)
  x, x, -0.8, 103, i, 0.98, 8
Cc1ccccc1C(=O)NC1CCN(CC(=O)Nc2ccc3c(c2)OCO3)CC1
  0, 101, x, 101, i, 1, -2
Cc1ccc(CNC(=O)COc2ccc(C)nc2[N+](=O)[O-])cc1
  x, x, -1.0, 98, i, 1.1, 4
CCOC(=O)CC1C(=O)NCCN1C(=O)Nc1ccc(Cl)cc1 (stereo not drawn)
  -18, 77, -1.4, 105, i, 1, -5
O=C(Nc1ccccc1)N1CCc2c([nH]c3ccccc23)C1C(F)(F)F (stereo not drawn)
  x, x, x, 95, i, 1, x
COc1cc2c(C)nc3c(c(C)nn3-c3ccccc3)c2cc1OC
  x, x, x, 109, i, 0.72, -3
O=C(C1=C(O)C(=O)N(CCCN2CCOCC2)C1c1ccccn1)c1cc2ccccc2o1 (stereo not drawn)
  0, 59, -1.0, 102, i, 1, -5
CCOC(=O)C1CCCN(Cc2nc(N)nc(Nc3ccccc3OC)n2)C1 (stereo not drawn)
  x, x, -1.3, 104, i, 0.81, -11
CN1CCN(C(=O)c2ccc3c(c2)S(=O)(=O)c2ccccc2C3=O)CC1
  x, x, x, 101, i, 0.91, -4
Clc1ccc(OCc2nc(-c3ccncc3)no2)cc1
  -421, 100, -2.2, 102, i, 0.83, 1

# Screening results deposited in PubChem by several laboratories.
